Assay outcomes (PubChem)
Cruzain noTriton – blocks cruzain activity in detergent-free assay; P25779; purified cruzain, Z-FR-AMC fluorescence, no detergent; Potency, µM, for inactives: max response, negative = inhibition, actives largely listed as inhibitors; 200,000 compounds, 2.3% hits; AID 1476;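 further: plate controls were enzyme without inhibitor for no effect and buffer without enzyme for full effect; nearly all actives have a fitted effect of over 40% in size; top concentration of the series not given in the record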
Target sequence (P25779 123-467 limits assumed): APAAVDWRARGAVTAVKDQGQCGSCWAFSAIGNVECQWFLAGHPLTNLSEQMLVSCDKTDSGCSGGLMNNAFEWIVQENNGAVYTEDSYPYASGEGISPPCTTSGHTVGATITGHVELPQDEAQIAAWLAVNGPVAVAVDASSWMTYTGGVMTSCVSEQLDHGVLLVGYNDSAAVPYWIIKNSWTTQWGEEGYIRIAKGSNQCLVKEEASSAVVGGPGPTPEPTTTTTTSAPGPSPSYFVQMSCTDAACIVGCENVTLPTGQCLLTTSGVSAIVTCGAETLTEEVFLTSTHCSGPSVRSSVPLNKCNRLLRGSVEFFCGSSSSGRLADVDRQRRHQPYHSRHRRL
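Detergent-free condition (0.00005% Triton X-100) in acetate buffer pH 5.5 with DTT. 1.5 nM enzyme and compound were pre-mixed 15 min, then 2 uM Z-FR-AMC substrate added; reaction progress from fluorescence change between first and third reads (60 s).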
SARS PLpro yeast – blocks SARS-CoV papain-like protease in a yeast assay; S. cerevisiae expressing SARS-CoV PLpro, growth rescue; control for the full effect not named in the record; 330,000 compounds, 0.19% hits; Potency, µM (doses to about 32.9 µM), for inactives: at the top dose activity, positive = growth rescue; active means well fitted rising curve with a large enough effect; inconclusive means small, poorly fitted or top-dose-only effect; inactive means no such curve, though single readings can be large or run the other way; further: 0% is about no effect; nearly all actives have a fitted effect of over 55% in size; growth read by luminescence after 48 h
Marburg entry inh – inhibitors of Marburg virus binding or cell entry; Marburg virus pseudotyped entry inhibition, cell reporter; control for the full effect not named in the record; about a third of the inactives were read at about 46 µM; Potency, µM (top dose mostly 37.8 µM), for the others: top-dose activity change, negative = inhibition, hits mostly inhibitors; 300,000 compounds, 1.8% hits; active = well fitted inhibition curve with a large enough effect; inconclusive = small, poorly fitted or top-dose-only effect, or effect the other way; inactive = flat fitted curve, though single readings scatter; tested in HEK293 cells; about a fifth of its hits are not listed in these tables; further: on the % scale 0 is the no-effect control and ±100 the full control effect; luciferase read-out
Lassa entry inh – inhibitors of Lassa virus binding or cell entry; Lassa virus pseudotype entry inhibition, cell reporter; control for the full effect not named in the record; Potency, µM (highest dose often 37.9 µM), without a hit: at the highest dose activity change, negative = inhibition, hits mostly inhibitors; 300,000 compounds, 1.2% hits; active means well fitted inhibition curve with a large enough effect; inconclusive means small, poorly fitted or top-dose-only effect, or effect the other way; inactive means flat fitted curve, though single readings scatter; tested in HEK293 cells; further: on the % scale 0 is the no-effect control and ±100 the full control effect; nearly all actives have a fitted effect of over 50% in size; luciferase read-out
Cruzain inh Det – cruzain (T. cruzi) inhibition with detergent | Potency, µM, for the others: max response, negative = inhibition, most hits filed as inhibitors | 200,000 compounds, 0.43% hits | purified cruzain, Z-FR-AMC fluorescence, 0.01% Triton;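 further: plate controls were neutral wells for no effect and buffer without enzyme for full effect; nearly all actives have a fitted effect of over 40% in size; top concentration of the series not given in the record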
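15 min RT preincubation of 1.5 nM cruzain with compound, then 2 uM Z-FR-AMC added; kinetic AMC fluorescence, 60 s delta. Triton X-100 0.01%, pH 5.5.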
RE007 growth inh – less growth of the S. pombe RE007 Vpr strain | S. pombe RE007 Vpr strain, BacTiter-Glo ATP luminescence, 24 h; control for the full effect not named in the record | Potency, µM (highest dose often 92.2 µM), without a hit: at the top dose activity change, negative = less growth | 360,000 compounds, 0.21% hits; active = well fitted falling curve with a large enough effect; inconclusive = small, poorly fitted or top-dose-only effect; inactive = no such curve, though single readings can be large or run the other way;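 further: on the % scale 0 is the no-effect control and ±100 the full control effect; nearly all actives have a fitted effect of over 50% in size; the assay follows cell death caused by Vpr and the record does not say whether a fall means rescue or toxicity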
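Fission yeast RE007 carrying one integrated HIV-1 vpr copy, seeded at OD 0.01 in PMG+AL medium with 23 nL pinned compound. Grown 24 h at 30 degrees; viability read by BacTiter-Glo luminescence after 5 min.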
NS1 function inh – influenza NS1 inhibition | AID 2326 | S. cerevisiae slowed by influenza A NS1, growth recovery by OD600 | Potency, µM (top dose mostly 46.1 µM), for the others: at the top dose activity, positive = more growth | 270,000 compounds, 0.4% hits; active means well fitted rising curve with a large enough effect; inconclusive means small, poorly fitted or top-dose-only effect; inactive means no such curve, though single readings can be large or run the other way; further: nearly all actives have a fitted effect of over 50% in size
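A cell-based growth assay was used: compounds that relieve NS1-induced slow growth of budding yeast raise OD600. Assay medium was yeast nitrogen base with ammonium sulphate and -URA supplement, pH 6.0, with 2% galactose.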
StopGo reporter – FMDV 2A StopGo reporter, luciferase signal. human cells with a luciferase reporter of 2A StopGo recoding; control for the full effect not named in the record. Potency, µM (series often up to 57.9 µM), without a hit: top-dose signal change, negative = less light. 410,000 compounds, 1.2% hits. AID 1159524; active = well fitted falling curve with a large enough effect; inconclusive = small, poorly fitted or top-dose-only effect; inactive = no such curve, though single readings can be large or run the other way; tested in HEK293T cells; further: on the % scale 0 is the no-effect control and ±100 the full control effect; nearly all actives have a fitted effect of over 45% in size; luciferase light after 4 h
Starred values were filed as active, the others as inactive; ? = inconclusive; . = no result given; [ ] = another dose, or the depositor's remark. Unless noted, the call rests on the fitted dose curve; in most records, active means well fitted curve in the direction sought with a large enough effect; inconclusive means small, poorly fitted or top-dose-only effect, or another doubt; inactive means no such curve, though single readings can be large; an effect the other way counts as inactive or inconclusive. Potency means the concentration at half of the fitted maximal effect. An unsorted share of the library; 4.7% or so of the library scored in one or more.

SMILES | Cruzain noTriton | SARS PLpro yeast | Marburg entry inh | Lassa entry inh | Cruzain inh Det | RE007 growth inh | NS1 function inh | StopGo reporter
COc1cccc(-n2nnnc2SCC(=O)NC2CCCC2)c1 | -4% | 0% | 12% | 9% | 1.4% | 3% | -4% | 16%
COC(=O)c1ccc(/C=N/NC(=O)C(=O)NCC2CCCO2)cc1 (stereo unspecified) | . | 1% | -4% | -1% | . | -16% | 0% | -4%
Cc1noc(/C=C/c2ccccc2F)c1S(=O)(=O)N1CCC(C(=O)NCc2ccco2)CC1 | -8% | . | . | 3%[46.1 µM] | -2.0% | . | . | 2%
COc1ccc(NC(=O)CSc2nccn2Cc2ccccc2)c(OC)c1 | . | 2% | 0% | 1% | . | -5% | -26% | 18%
O=C(c1ccccc1)N(Cc1nc2ccccc2c(=O)[nH]1)C1CCCCC1 | . | 1% | ? | -3%[46.1 µM] | . | 7% | -4% | -15%
C(#Cc1ccccc1)C[N+]1(CC#Cc2ccccc2)CCCCC1 | . | -1% | -12%[46.1 µM] | ? | . | -4% | -12% | ?
CCOc1ccc(NC(=O)CN(C)C(=O)CSCc2ccc(C)cc2)cc1OCC | . | -7% | -8% | -14% | . | -3% | . | 0%
Cc1cc(N2CCCCC2)nc(N2CCCCC2)n1 | . | 0% | . | . | . | -4% | -5% | -18%
Cc1ccc(C)c(NC(=O)C(Sc2nc3ccccc3c(=O)n2CC(C)C)c2ccccc2)c1 (stereo unspecified) | 20µM* | 1% | ? | ? | -0.6% | 1% | 12% | -19%
COc1ccc(/C=C2\SC(=S)N(CCC(=O)N3CCCCC3CCO)C2=O)cc1 (stereo unspecified) | . | -2% | . | . | . | -6% | 13% | ?
COc1cccc(C(=O)Nc2cccc(-c3cn4c(C)csc4n3)c2)c1OC | -21% | . | . | 16%[46.1 µM] | -2.5% | . | . | 1%
CCN(CC)C(=S)NC(=O)c1ccc(F)cc1 | . | 2% | -2%[46.1 µM] | -1% | . | 5% | -2% | -23%
CSc1ccccc1C(=O)N(C)Cc1ccccc1 | . | -1% | -9%[46.1 µM] | . | . | 8% | -3% | 11%
O=c1c2ccccc2nc(CSc2ncnc3nc[nH]c23)n1-c1ccccc1Cl | 0% | 21% | -2% | -15% | -4.7% | 7% | 12% | -10%
CCCn1nnc(NC(=O)C(C)C)n1 | . | 0% | . | . | . | 15% | 3% | -13%
CC1Cc2nc(SCC(=O)N3CCN(c4ccccc4)CC3)n(C)c(=O)c2S1 (stereo unspecified) | -7% | -17% | . | . | -3.1% | -3% | -21% | ?
O=C(NCCc1ccccc1)c1cccs1 | -1% | 2% | ? | -8% | 6.4% | 3% | -59% | 2%
COc1ccc(-c2cc(C(N)=O)nc(N3CCCCCC3)n2)cc1 | 32µM* | -7% | -4% | 8% | -3.7% | -7% | 5% | -18%
CCN(CC)CCCNC(=O)Cc1c(C(=O)O)n(C)c2ccccc12 | -8% | -2% | -2% | . | 3.6% | . | -7% | ?
CCN(C(=O)Cn1c(=O)n(Cc2ccc3c(c2)OCO3)c(=O)c2ccc(C(=O)NC3CCCCC3)cc21)c1cccc(C)c1 | 32µM* | . | ? | -5%[46.1 µM] | -3.1% | . | . | -24%
Cc1cccc(NC(=O)NC(=S)NC(=O)c2ccccc2)c1 | -9% | -6% | 12% | 4% | -11% | -24% | -4% | 31%[activator]
CCc1ccc(/C=C2\Oc3ccc(C(=O)OC)cc3C2=O)cc1 | 8% | 2% | 1% | 1% | -4.1% | -5% | 8% | 38%[activator]
CC1CCC(N2CCN(c3ncccn3)CC2)CC1 (stereo unspecified) | 3% | . | 8% | -10% | 2.6% | -15% | 1% | -13%
Cc1nn(C)c(Cl)c1NC(=O)OCc1ccc(Cl)cc1Cl | -3% | -6% | ? | -25% | -8.2% | 3% | -22% | ?
CCC(C)NC(=S)N1CCN(Cc2ccccc2)CC1 (stereo unspecified) | . | -2% | 18% | 0% | . | 13% | 0% | -16%

Other records follow.
SMILES | Cruzain noTriton | SARS PLpro yeast | Marburg entry inh | Lassa entry inh | Cruzain inh Det | RE007 growth inh | NS1 function inh | StopGo reporter
CC(C)CC(NC(N)=O)C(=O)NCc1ccccc1Cl (stereo unspecified) | . | -4% | -5%[46.1 µM] | 0%[46.1 µM] | . | 11% | . | 18%
O=C(C1=C[C@H](c2coc3ccccc3c2=O)C[C@H](OCc2ccc(CO)cc2)O1)N1CCOCC1 | . | 1% | . | . | . | -2% | 0% | 1%
CC(=O)Oc1ccc(N(C(C)=O)S(=O)(=O)c2ccc(Cl)cc2)c2ccccc12 | . | -18% | ? | ? | . | 15% | 3% | -2%
Cc1cc(C)n(-c2nc3sc4c(c3c3nnc(SC(C)C)n23)CC(C)(C)OC4)n1 | . | . | 5% | -3% | . | 4% | -5% | -25%
COC(=O)c1ccc(C)c(NS(=O)(=O)c2cn(C)nc2C)c1 | . | -6% | . | . | . | -10% | 9% | 3%
Cc1cc(C)cc(NC(=O)N2CCCN(Cc3c(F)cccc3Cl)CC2)c1 | . | 1% | ? | -20%[46.1 µM] | . | -14% | 0% | -15%
CC(Nc1ccc(S(=O)(=O)N2CCN(C)CC2)cc1[N+](=O)[O-])c1ccccc1 (stereo unspecified) | . | ? | ? | ? | . | -3% | . | -11%
COC(=O)c1ccc(C(=O)OC)c(NC(=O)c2cnn3c(C(F)F)cc(-c4ccc(C)cc4)nc23)c1 | -4% | . | 28%[46.1 µM] | 10%[46.1 µM] | -1.6% | . | . | -2%
O=C(Nc1ccc(CN2CCCCC2)cc1)c1cc(Br)ccc1Cl | . | 0% | ? | -19% | . | -4% | 2% | -6%
COc1ccc(N2CCN(c3cc(C)c4ccccc4n3)CC2)cc1 | . | -7% | -1% | ? | . | -21% | . | ?
CN1C(=O)COc2ccc(C(=O)c3ccccc3C(=O)O)cc21 | 5% | 21% | 11% | ? | -0.9% | 0% | 0% | -1%
CC1=NN(C(C#N)c2ccccc2O)C(C)(C)C1 (stereo unspecified) | . | 2% | 10%[46.1 µM] | 3% | . | 10% | 3% | 14%
COc1ccc(N2C(=O)CC(N3CCN(c4ccc(Cl)cc4)CC3)C2=O)cc1 (stereo unspecified) | . | 3% | . | . | . | 3% | 1% | -28%
CCc1nn(CC(=O)NCCCN(Cc2ccccc2)C(C)C)c(=O)c2cc3sccc3n12 | 9% | -8% | ? | -16% | -3.4% | 11% | -4% | 6%
COc1ccccc1-n1c(C)nc2cc(C(=O)NCc3ccc4c(c3)OCO4)ccc21 | 5% | 4% | 13% | 2% | -2.3% | -10% | 11% | -2%
CCOC(=O)c1cccc(NC(=O)CSc2ncc3c(n2)-c2ccccc2N(C)S3(=O)=O)c1 | -5% | . | . | 4%[46.1 µM] | 1.1% | . | . | -15%
CCN(C(=O)CSc1nc2ccccc2c(=O)n1-c1ccc(C)cc1)C1CCS(=O)(=O)C1 (stereo unspecified) | . | -5% | ? | ? | . | 7% | -6% | -5%
CC(C)c1ccc(NC(=O)COC(=O)CCC(=O)c2cccs2)cc1 | 20% | -12% | ? | 6% | -9.3% | -7% | -26% | 10%
CC(O)CNCCNCc1cccs1 (stereo unspecified) | . | 1% | 5% | 7% | . | -12% | . | -14%
CCOc1ccccc1Nc1ncnc2ccc(Br)cc12 | . | 0% | ? | -4%[46.1 µM] | . | 14% | 2% | -26%
CCOc1ccccc1N(C)C(=O)c1cc(S(=O)(=O)NCc2ccc(C)cc2)ccc1F | 3% | . | . | -23%[46.1 µM] | -5.7% | . | . | -23%
COc1ccccc1NC(=O)Cn1c(=O)n(-c2cccc(C(C)=O)c2)c(=O)c2c3c(sc21)CN(C(C)=O)CC3 | -4% | . | 3%[46.1 µM] | . | -0.7% | . | . | ?
C=CCN1C(=O)C(O)=C(C(C)=O)C1c1ccccc1F (stereo unspecified) | 6% | 1% | -6% | 1% | -3.3% | -17% | 3% | -16%
C/C(N)=C(/C#N)C(=O)COC(=O)c1ccccc1O | 6% | -5% | -14% | ? | -0.6% | -6% | 7% | 61%[activator]
CCc1ccc(NC(=O)Cn2ccn(-c3ccc(C)c(C)c3)c(=O)c2=O)cc1 | 2% | . | . | 6%[46.1 µM] | -5.2% | . | . | 37%[activator]

(further entries)
SMILES | Cruzain noTriton | SARS PLpro yeast | Marburg entry inh | Lassa entry inh | Cruzain inh Det | RE007 growth inh | NS1 function inh | StopGo reporter
O=C(Cn1ccc2ccccc2c1=O)Nc1ccc2c(c1)OCO2 | -13% | -2% | -4% | 2% | 10% | 4% | 5% | -10%
CC(NC(=O)CN1CCCC1)C12CC3CC(CC(C3)C1)C2 (stereo unspecified) | -7% | 0% | ? | -17% | 8.5% | 11% | -10% | 4%
COc1ccc(-c2cc(C(F)(F)F)c(C#N)c(SCC(=O)Nc3ccc(F)cc3)n2)cc1 | 4% | . | 20%[46.1 µM] | 2%[46.1 µM] | -1.0% | . | . | 5%
CCCCN(C)CCNC(=O)c1ccc(Cn2c(=S)[nH]c3ccc(Br)cc3c2=O)cc1 | . | 1% | ? | 7% | . | 3% | . | 43%[activator]
CC1Cc2cc(S(=O)(=O)N3CCC(C(N)=O)CC3)ccc2N1C(=O)C1CC1 (stereo unspecified) | . | 3% | . | . | . | 8% | -13% | 25%
Cc1cc(C(=O)COC(=O)/C=C/c2cccc(Br)c2)c(C)n1C | . | 5% | ? | 1% | . | -8% | . | 11%
COc1ccc(OCC(O)CNC(=O)c2ccc(Br)cc2)cc1 (stereo unspecified) | -26% | 3% | -8% | -5% | 1.4% | -5% | 9% | 9%
CCC1CCC(C(=O)NC(C(=O)Nc2cccc(OC)c2)C(C)C)CC1 (stereo unspecified) | 1% | . | ? | 14%[46.1 µM] | -2.3% | . | . | -4%
COc1ccc(NC(=O)CC(NCc2ccccn2)C(=O)O)cc1 (stereo unspecified) | . | 0% | -7%[46.1 µM] | 1%[46.1 µM] | . | 15% | 3% | -5%
